D2 ag – agonists of human D2 dopamine receptor (beta-arrestin). P14416. DiscoveRx PathHunter D2 beta-arrestin, luminescence, 90 min; 100% = 57 uM dopamine signal. activation, % (no concentration beside the values). 360,000 tested, 0.084% active; in the data active = activation above about 40%; inconclusive = about 15% to 40%; inactive = below about 15%; further: compound concentration not given in the record; the text of the record calls up to 30% inactive
Target sequence (P14416 whole entry, looked up): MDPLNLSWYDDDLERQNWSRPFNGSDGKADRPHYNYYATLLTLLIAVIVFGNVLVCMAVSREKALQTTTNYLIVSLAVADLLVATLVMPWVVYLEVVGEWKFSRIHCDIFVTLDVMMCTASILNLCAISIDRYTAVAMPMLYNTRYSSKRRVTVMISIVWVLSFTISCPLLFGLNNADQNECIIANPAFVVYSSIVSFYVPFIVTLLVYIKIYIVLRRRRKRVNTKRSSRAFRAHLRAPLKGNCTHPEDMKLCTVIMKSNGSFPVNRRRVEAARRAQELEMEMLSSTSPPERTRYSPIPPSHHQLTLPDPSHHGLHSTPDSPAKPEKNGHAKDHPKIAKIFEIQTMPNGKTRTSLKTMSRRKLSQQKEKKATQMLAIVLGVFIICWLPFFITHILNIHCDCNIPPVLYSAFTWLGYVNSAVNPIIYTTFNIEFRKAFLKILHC
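Agonist mode: compounds alone added to overnight-plated D2 PathHunter cells for 90 min at 37 C, with 57 uM final dopamine (EC100) defining full response. Beta-arrestin recruitment detected by chemiluminescent reagent, read after 1 h at ambient temperature.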
Six1-Eya2 blk – Six1/Eya2 interaction inhibition; Q15475+O00167; AlphaScreen GST-Six1/His-Eya2 binding, biochemical; hits give low values; control for the full effect not named in the record; activity change, % (concentration not given with the values); 360,000 tested, 0.56% active; in the data active = activity change below about -65%; inconclusive = about -30% to -65%; inactive = above about -30%; further: on the % scale 0 is the no-effect control and ±100 the full control effect
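AlphaScreen with GST-Six1 and His-Eya2 (5X mix: 250 nM and 500 nM), glutathione donor and nickel acceptor beads; buffer 50 mM Tris pH 8.0, 300 mM NaCl, 1 mM TCEP; 1 h at 37 C in the dark.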
CtBP-E1A inh – inhibitors of CtBP/E1A interaction; AlphaScreen GST-E1A/His-CtBP binding, 1536-well; hits give low values; control for the full effect not named in the record; activity change, % (no concentration beside the values); 340,000 tested, 0.49% active; in the data active means activity change below about -65%; inconclusive means about -30% to -65%; inactive means above about -30%; further: on the % scale 0 is the no-effect control and ±100 the full control effect; compound concentration not given in the record
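GST-E1A and His-tagged CtBP (125 nM each as 5X stock) were preincubated with pin-transferred compound for 2 h at 37 °C in the dark, then glutathione donor and nickel acceptor beads were added for 1 h before AlphaScreen reading.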
TRPV1 PAM – potentiators of human vanilloid receptor 1 (TRPV1) | Q8NER1 | TRPV1-expressing cells, Fluo-8 calcium influx, capsaicin EC20 potentiation; host cell line not named in the record; control for the full effect not named in the record | potentiation, % at 8.33 µM | 320,000 tested, 0.02% active | AID 540277; active means potentiation above 80%; inconclusive means 30% to 80%; inactive means below 30%; further: 0% is about no effect
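Fluo-8 calcium influx in TRPV1-expressing cells, kinetic read (ex 480/em 520 nm). Compound added and read 3 min for agonist activity, followed by capsaicin at EC20 final and 2 min further read for enhancement.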
D2 PAM – positive allosteric modulators of human D2 dopamine receptor; DiscoveRx D2 beta-arrestin cells, luminescence, 90 min; 100% = 57 uM dopamine signal; potentiation, % (concentration not given with the values); 360,000 tested, 0.23% active; active = potentiation of 50% or more; inconclusive = 30% to 50%; inactive = 30% or less;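 further: compound concentration not given in the record; tested on top of an EC20 dose of dopamine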
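PathHunter beta-arrestin assay in DiscoveRx D2 cells. Compounds were added with an EC20 of dopamine (50 nM final) for 90 min at 37 deg C. Luminescence was read 1 h after detection reagent, with 57 uM dopamine as the EC100 control.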
PINK1 expr mod – changes PINK1 expression. PINK1 immunofluorescence, high-content cytometry, 24 h. Potency, µM (series often up to 76.6 µM), inactives show at the highest dose activation (PINK1 increase), usual class: activators. 410,000 tested, 0.2% active; active = well fitted activation curve with a large enough effect; inconclusive = small, poorly fitted or top-dose-only effect; inactive = flat fitted curve, though single readings scatter; cell line not stated here;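 further: potency means the concentration at half of the fitted maximal effect; % of control where 0% means no effect; nearly all actives have a fitted effect of over 65% in size; a mitochondrial uncoupler was the plate control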
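PINK1 protein level read as immunofluorescence by microplate cytometer in a fixed, stained stable cell line after 24 h exposure to five compound concentrations, with CCCP as control.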
Sfp inh – Sfp phosphopantetheinyl transferase inhibition. Biochemical Sfp PPTase activity, qHTS. Potency, µM, for the others: max response, negative = inhibition, usual class: inhibitors. 310,000 tested, 3.5% active; active means well fitted inhibition curve with a large enough effect; inconclusive means small, poorly fitted or top-dose-only effect, or another doubt; inactive means no such curve, though single readings can be large or run the other way;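 further: the enzyme is Sfp with the accession as filed and its product quenches rhodamine fluorescence; potency means the concentration at half of the fitted maximal effect; 0% = enzyme reaction without inhibitor and -100% = no enzyme wells; top concentration of the series not given in the record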
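Fluorescence-quenching assay: 15 nM Sfp-PPTase preincubated 15 min at room temperature with compound, then 5 uM rhodamine-CoA and 12.5 uM BHQ-2-labelled YbbR peptide added. Fluorescence (ex 525/em 598 nm) read at start and after 30 min; difference gives rate.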
* hit, by the source's call; ? = inconclusive; . = no result given; [ ] = remark or other dose. Rows are unselected; overall some 3.7% were active at least once.

mol,D2 ag,Six1-Eya2 blk,CtBP-E1A inh,TRPV1 PAM,D2 PAM,PINK1 expr mod,Sfp inh
N#CCN1C(=O)C(=O)N(Cc2cccc(C(F)(F)F)c2)C1=O,-2.5,-5,11,-5,1,3.2%,2%
CCOC(=O)C1(CCOC)CCN(Cc2ccc(C(=O)OC)cc2)CC1,0.7,-8,3,5,-19,0.5%,-3%
CCOc1ccc(N(Cc2cc3cc(C)ccc3[nH]c2=O)S(=O)(=O)c2ccccc2)cc1,-2.7,-4,2,-3,-12,4.4%,22%
CCC(C)COC(=O)c1ccc(C(=O)O)cc1 (stereo not drawn),-3.1,-7,-9,.,14,-1.3%,4%
CCOC(=O)C1=C(CSc2nc(C)cc(C)c2C#N)OC(N)=C(C#N)C1c1cccs1 (stereo not drawn),-2.1,-3,0,13,16,-0.5%,-8%
CN(CC(=O)Nc1ccc(F)cc1)C(=O)c1ccc(OCc2ccccc2)cc1,-1.7,0,0,-2,3,25%,.
COc1ccc(-n2c(SCC(=O)Nc3ccc(C(N)=O)cc3)nc3ccccc3c2=O)cc1OC,0.1,-4,-5,5,2,4.9%,-14%
O=C(c1ccc([N+](=O)[O-])o1)N1CCc2ccccc2C1,-9.4,1,9,-2,-25,6.2%,9%
CC(C)c1nc2sc3c(c2c(=O)o1)CCCC3,1.5,7,1,10,-8,1.2%,-13%
CCOC(=O)C(NC(C)=O)(Nc1ccc(S(=O)(=O)Nc2ncccn2)cc1)C(F)(F)F (stereo not drawn),-2.5,2,-1,-1,-7,-0.8%,5%
NC(=O)c1ccccc1OCCOCCOCCOc1ccccc1C(N)=O,2.7,5,-1,4,-7,2.2%[38.3 µM],18%
COc1cccc(NC(=O)c2ccccc2F)c1,-1.4,10,6,8,-5,1.8%,.
CNc1nc(Cl)nc(Nc2ccccc2)n1,-3.6,-1,.,-2,-15,-0.5%,17%
COc1ccc(NC(=O)C2Cc3c(-c4ccc5c(c4)OCO5)ccnc3O2)cc1OC (stereo not drawn),1.8,-12,-5,.,1,5.3%,.
O=C(CCS(=O)(=O)c1ccc(Cl)cc1)N1CCN(c2ccc(F)cc2)CC1,-0.7,0,-23,-9,-6,-1.5%,.

New compounds follow
mol,D2 ag,Six1-Eya2 blk,CtBP-E1A inh,TRPV1 PAM,D2 PAM,PINK1 expr mod,Sfp inh
O=C(NNC(=O)C1CC=CCC1C(=O)O)c1cccs1 (stereo not drawn),4.2,5,-15,0,-3,0.4%,19%
N/C(Cc1ccc([N+](=O)[O-])cc1)=N\OC(=O)c1cccc(Br)c1,63*,-6,.,3,24,0.4%,-24%
CC(=O)N1CCN(C23CC4CC(CC(C4)C2)C3)CC1,-2.5,-3,9,-4,2,-1.8%,5%
CCOC(=O)C(C)n1cnc2sc(C)c(C)c2c1=O (stereo not drawn),-0.1,2,6,8,-4,-0.3%,9%
COc1cccc(C(=O)NNC2=C(C(=O)C(F)(F)F)CCC2)c1,-1.7,7,-1,3,-8,2.2%,28%
COCCn1c(C)nnc1SCC(=O)Nc1ccccc1[N+](=O)[O-],-3.6,-7,3,-7,0,1.2%,10%
Cn1c(=O)c2[nH]c(NN=Cc3ccccc3)nc2n(C)c1=O,7.6,-2,-6,.,19,0.7%,.
Cc1oc2ccc(O)cc2c1C(=O)c1ccc([N+](=O)[O-])cc1,7.3,-14,-25,-1,54*,1.4%,-2%
COc1ccc(-n2cc(CNCCc3nc(C)cc(C)n3)c(-c3ccccc3Cl)n2)cc1,-3.0,-7,-4,-14,-15,0.0%,-1%
CC(C)(C)[C@@H]1C=C(C(N)=O)O[C@H](OCCCCO)C1,0.3,1,0,.,-1,1.2%,.
O=C(CSc1nnc(SCc2ccccc2)s1)N/N=C/C=C\c1ccco1,-0.6,-20,0,7,1,4.5%,11µM*
Cn1nccc1C(=O)Nc1ccc2c(c1)OCO2,-0.6,0,5,-2,-23,-1.1%,24%
Cc1ccc(NC(=O)CN(C)C(=O)CSc2nnnn2C)cc1,-4.0,3,0,?,-8,1.9%,-4%
CCOC(=O)c1c(C)nc2c(c1-c1ccc(OC)cc1)C(=O)CC(C)(C)C2,4.4,4,0,-17,-9,-0.7%,9%
CSc1nc2nc3c(c(=O)n2[nH]1)CCC3,-2.4,-4,8,-5,-3,4.4%,5%

The listing continues.
mol,D2 ag,Six1-Eya2 blk,CtBP-E1A inh,TRPV1 PAM,D2 PAM,PINK1 expr mod,Sfp inh
Cc1ccc(Cl)c(OCC(=O)OC(C)C(=O)NC2CC2)c1 (stereo not drawn),-2.8,4,-1,-5,-9,3.0%,.
CN(C(=O)CSc1nc2[nH]ncc2c(=O)[nH]1)c1ccccc1,-2.9,4,-2,-5,6,0.7%,.
COc1cccc(C(=O)/C=C/Nc2ccc(S(=O)(=O)Nc3nc(C)cc(C)n3)cc2)c1,0.9,-1,-19,3,23,-0.6%,9%
COc1ccccc1/C=C\C=N\n1c(C2CCCCC2)n[nH]c1=S,0.6,-17,-5,-6,-35,.,-25%
Cc1c(S(=O)(=O)c2ccccn2)c(N)n(Cc2ccccc2Cl)c1C,-4.4,-1,-9,?,-11,2.4%,-15%
CC(C)(C)c1ccc(OCCN2CCCC2)cc1,4.7,3,3,-3,-15,4.9%[38.3 µM],-1%
CCOC(=O)C1CCN(S(=O)(=O)c2ccc3c(c2)N(C(C)=O)CC(C)S3)CC1 (stereo not drawn),-1.8,1,1,-13,-6,-0.2%,14%
O=C(NCc1ccccc1)c1ccc(CS(=O)Cc2ccc(Cl)cc2)o1 (stereo not drawn),4.7,12,-9,3,-18,-0.1%,2%
COc1ccc2c(c1)c(=O)c(Br)c(C)n2Cc1ccccc1,-1.8,-27,10,-22,1,4.2%,?
COc1ccc(OCC(=O)Nc2ccccc2O)cc1,-1.0,3,7,-10,3,3.3%[38.3 µM],-9%
Oc1c(C(c2cccs2)N2CCN(c3ccccc3)CC2)sc2ncnn12 (stereo not drawn),-1.8,-5,-20,4,-6,1.5%,5%
O=S(=O)(c1ccccc1)c1cnn(-c2ccccc2)c1-c1ccc(Cl)cc1,1.6,0,5,-1,-12,1.9%,4%
COc1ccc(S(=O)(=O)N2CCOCC2)cc1NC(=O)CN1CCCC1,-3.6,8,12,-9,-5,0.1%,9%
O=C(COC(=O)c1cccc(S(=O)(=O)N2CCN(c3ccccc3)CC2)c1)NCC1CCCO1 (stereo not drawn),-4.4,5,0,0,-3,0.3%,2%
O=C(Nc1ccccc1)C(=O)Nc1ccc2c(c1)N(C(=O)C1CC1)CCC2,2.6,-8,-4,-10,-27,0.5%,.

Continued.
mol,D2 ag,Six1-Eya2 blk,CtBP-E1A inh,TRPV1 PAM,D2 PAM,PINK1 expr mod,Sfp inh
CCCC(=O)Nc1ccc(C(=O)Nc2cc(C(F)(F)F)ccc2Cl)cc1,-1.3,2,6,1,-3,14%,8%
Cc1ccc(C2CC(c3ccccc3C)n3nc(N)nc3N2)cc1 (stereo not drawn),0.8,-4,0,-8,-1,2.6%,11%
Cc1ccc(C(=O)O)cc1NC(=S)NC(=O)c1ccc([N+](=O)[O-])cc1Cl,-0.6,-2,1,0,6,3.0%,?
CC(C)(C)c1ccc(S(=O)(=O)NC(=O)C2(C)CCN2C(=O)c2cccc3ccccc23)cc1 (stereo not drawn),7.1,2,3,.,3,-1.4%,.
CC1=C(C(=O)Nc2cccnc2)C(c2cccnc2)n2nc(-c3cccs3)nc2N1 (stereo not drawn),1.3,3,-10,2,9,1.3%,28%
C[C@@]12C(=O)Nc3cc(F)ccc3C(=O)N1[C@H]1c3cc(Br)ccc3OC[C@@H]1[C@@H]2c1ccccc1,0.1,-6,-9,.,-10,3.0%,.
CCc1noc(C)c1C(=O)N(C)CC(=O)Nc1ccc(F)c(F)c1F,-4.7,3,9,11,-7,0.0%,.
FC(F)(F)COc1ccc(-c2nnc(SCc3ccccc3)o2)cn1,-0.8,1,10,-4,-4,9.2%,5%
O=C(NC1CCCc2ccccc21)c1ccc2c(c1)OCO2 (stereo not drawn),-1.0,1,-2,-23,-2,2.8%,-20%

Compounds from the list above that have an aryl thioether with sulfur outside any ring, in the order listed:
mol,D2 ag,Six1-Eya2 blk,CtBP-E1A inh,TRPV1 PAM,D2 PAM,PINK1 expr mod,Sfp inh
CCOC(=O)C1=C(CSc2nc(C)cc(C)c2C#N)OC(N)=C(C#N)C1c1cccs1 (stereo not drawn),-2.1,-3,0,13,16,-0.5%,-8%
COc1ccc(-n2c(SCC(=O)Nc3ccc(C(N)=O)cc3)nc3ccccc3c2=O)cc1OC,0.1,-4,-5,5,2,4.9%,-14%
COCCn1c(C)nnc1SCC(=O)Nc1ccccc1[N+](=O)[O-],-3.6,-7,3,-7,0,1.2%,10%
O=C(CSc1nnc(SCc2ccccc2)s1)N/N=C/C=C\c1ccco1,-0.6,-20,0,7,1,4.5%,11µM*
Cc1ccc(NC(=O)CN(C)C(=O)CSc2nnnn2C)cc1,-4.0,3,0,?,-8,1.9%,-4%
CSc1nc2nc3c(c(=O)n2[nH]1)CCC3,-2.4,-4,8,-5,-3,4.4%,5%
CN(C(=O)CSc1nc2[nH]ncc2c(=O)[nH]1)c1ccccc1,-2.9,4,-2,-5,6,0.7%,.
FC(F)(F)COc1ccc(-c2nnc(SCc3ccccc3)o2)cn1,-0.8,1,10,-4,-4,9.2%,5%

Source: PubChem BioAssay (National Center for Advancing Translational Sciences (NCATS))
